Sfp PPTase inh – inhibitors of Bacillus subtilis Sfp phosphopantetheinyl transferase; 310,000 tested, 3.5% active; Biochemical Sfp PPTase activity, qHTS; Potency, µM, for the others: max response, negative = inhibition, actives largely listed as inhibitors; AID 1490; Q9F4F7; active means well fitted inhibition curve with a large enough effect; inconclusive means small, poorly fitted or top-dose-only effect, or another doubt; inactive means no such curve, though single readings can be large or run the other way;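 further: the enzyme is Sfp with the accession as filed and its product quenches rhodamine fluorescence; potency means the concentration at half of the fitted maximal effect; 0% = enzyme reaction without inhibitor and -100% = no enzyme wells; top concentration of the series not given in the record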
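Step 1, compound plus 15 nM Sfp-PPTase, 15 min, room temperature. Step 2, add rhodamine-CoA (5 uM) and BHQ-2-YbbR (12.5 uM). Step 3, read 525/598 nm fluorescence at 0 and 30 min.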
ClpP mod – qHTS Assay for Activators of ClpP | ATP-dependent Clp protease proteolytic subunit (Bacillus subtilis (strain 168)), P80244 | 340,000 tested, 1.9% active | Potency, µM (top dose mostly 57.5 µM), for the others: at the top dose activity change, negative = active | purified B. subtilis ClpP, FRET peptide cleavage, 20 min; active = well fitted falling curve with a large enough effect; inconclusive = small, poorly fitted or top-dose-only effect; inactive = no such curve, though single readings can be large or run the other way; further: potency means the concentration at half of the fitted maximal effect; the source files actives as falling curves though it sought activators and does not explain the sign; nearly all actives have a fitted effect of over 65% in size; many hits overshoot -100%
Target sequence (P80244 whole entry, looked up): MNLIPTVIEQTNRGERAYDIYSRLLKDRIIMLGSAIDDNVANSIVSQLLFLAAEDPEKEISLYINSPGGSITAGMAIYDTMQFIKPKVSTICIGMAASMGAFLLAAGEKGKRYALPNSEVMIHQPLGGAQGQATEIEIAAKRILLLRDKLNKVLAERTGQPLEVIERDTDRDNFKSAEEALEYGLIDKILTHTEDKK
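Buffer: 100 mM Tris/HCl pH8, 100 mM KCl, 0.05% low protease BSA, 2.5% glycerol, 0.01% Tween-20. ClpP 10 microg/mL final; 20 min RT; delta FRET normalized to ADEP and DMSO controls.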
Menin-MLL FL inh – inhibitors of human menin-MLL interaction, wild-type MLL peptide; Fluorescence polarization, fluorescein-MLL peptide displacement from menin; FP activity change, % at 61.4 µM; 290,000 tested, under 10 active; inconclusive = falling polarisation curve, or a change in total fluorescence; inactive = total fluorescence flat and polarisation flat or rising; no compound was filed as active; the % refers to the polarisation; negative = inhibition;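 further: % of control where 0% means no effect; inhibitors lower the polarisation; unlabelled MLL peptide was the positive control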
PINK1 modulator – changes PINK1 expression | Potency, µM (top dose mostly 76.6 µM), for the others: at the highest dose activation (PINK1 increase), most hits filed as activators | AID 624263 | 410,000 tested, 0.2% active | PINK1 immunofluorescence, high-content cytometry, 24 h; active = well fitted activation curve with a large enough effect; inconclusive = small, poorly fitted or top-dose-only effect; inactive = flat fitted curve, though single readings scatter; cell line not stated here;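 further: potency means the concentration at half of the fitted maximal effect; % of control where 0% means no effect; nearly all actives have a fitted effect of over 65% in size; a mitochondrial uncoupler was the plate control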
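Cells are seeded, rested 12 hours, then given compound at five concentrations or DMSO for 24 hours. After fixation, blocking and antibody staining, PINK1 amount and mitochondrial localization are scored; CCCP serves as control.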
gsp antag – antagonists of gsp mutant (McCune-Albright syndrome) | 340,000 tested, 0.4% active | gsp-mutant cells, cAMP HTRF, 30 min; control for the full effect not named in the record | Potency, µM (titrated, usually from 76.9 µM), without a hit: top-dose activity change, negative = inhibition, actives largely listed as inhibitors | AID 624288; active = falling curve of any shape with a large fitted effect; inconclusive = falling curve, mostly with a smaller effect; inactive = flat or rising curve; cell line not stated here;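 further: intracellular cAMP measured with PDE inhibitor Ro 20-1724 present during compound exposure; potency means the concentration at half of the fitted maximal effect; on the % scale 0 is the no-effect control and ±100 the full control effect; nearly all actives have a fitted effect of over 65% in size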
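Cells in G418 medium, seeded 16-24 h, 37C; buffer exchange to DPBS + 1 mM CaCl2, 0.5 mM MgCl2, 0.05% BSA; cpds in DMSO + […] (300 uM stock), 30 min 37C; HTRF cAMP detection.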
gsp agonist – gsp mutant agonism; gsp mutant cells, cAMP HTRF, 30 min; control for the full effect not named in the record; Potency, µM (highest dose often 76.9 µM), for inactives: at the highest dose activation (cAMP increase), usual class: activators; 340,000 tested, 0.13% active; AID 624287; active = well fitted activation curve with a large enough effect; inconclusive = small, poorly fitted or top-dose-only effect, or another doubt; inactive = no such curve, though single readings can be large or run the other way; cell line not stated here;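 further: phosphodiesterase inhibitor Ro 20-1724 added with compounds to block cAMP breakdown; potency means the concentration at half of the fitted maximal effect; nearly all actives have a fitted effect of over 60% in size; about a fifth of the inactives were tested at one dose only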
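Cells in DMEM/10% FBS with G418 were pretreated with compounds in DMSO plus […] (300 uM stock) for 30 min at 37C. cAMP was measured by HTRF (cAMP-d2 plus anti-cAMP antibody-K) after 30 min at room temperature.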
D2 agonist – agonists of human D2 dopamine receptor (beta-arrestin) | DiscoveRx PathHunter D2 beta-arrestin, luminescence, 90 min; 100% = 57 uM dopamine signal | activation, % (test concentration not listed) | 360,000 tested, 0.084% active | AID 624465; in the data active = activation above about 40%; inconclusive = about 15% to 40%; inactive = below about 15%; further: compound concentration not given in the record; the text of the record calls up to 30% inactive
Target sequence (P14416 whole entry, looked up): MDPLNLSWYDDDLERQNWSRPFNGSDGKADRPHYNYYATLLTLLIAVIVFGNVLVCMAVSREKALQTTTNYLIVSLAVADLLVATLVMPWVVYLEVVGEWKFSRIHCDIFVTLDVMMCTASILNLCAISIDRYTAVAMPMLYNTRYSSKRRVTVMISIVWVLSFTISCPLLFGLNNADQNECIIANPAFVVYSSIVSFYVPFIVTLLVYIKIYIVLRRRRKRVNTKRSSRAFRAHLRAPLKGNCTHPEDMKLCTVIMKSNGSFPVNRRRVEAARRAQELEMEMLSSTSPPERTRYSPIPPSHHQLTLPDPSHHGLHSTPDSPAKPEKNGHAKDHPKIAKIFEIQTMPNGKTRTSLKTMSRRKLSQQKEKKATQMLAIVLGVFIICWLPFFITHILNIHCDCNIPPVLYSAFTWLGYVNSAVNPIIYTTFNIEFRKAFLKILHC
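Agonist mode: compounds alone added to overnight-plated D2 PathHunter cells for 90 min at 37 C, with 57 uM final dopamine (EC100) defining full response. Beta-arrestin recruitment detected by chemiluminescent reagent, read after 1 h at ambient temperature.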
* marks the source's active call; other numbers are inactive results; u = inconclusive; x = not tested or not shown; [ ] = another dose, or the depositor's remark.

SMILES	Sfp PPTase inh	ClpP mod	Menin-MLL FL inh	PINK1 modulator	gsp antag	gsp agonist	D2 agonist
O=c1ccnc(S/C=C/c2ccccc2)[nH]1	8%	-1.0%	3.2	0.3%[38.3 µM]	u	-34%[inhibitor]	-0.8
O=C(CNC(=O)c1cccc(Br)c1)N/N=C/c1cn[nH]c1-c1ccccc1	11%	x	0.1	-0.3%	-25%	-11%[15.4 µM]	5.2
O=C(NCc1ccccc1)c1onc(CS(=O)(=O)c2ccc(Cl)cc2)c1C(=O)NCc1ccccc1	x	-0.9%	x	4.7%	7%	u	-5.7
CC(C)C(=O)Nc1cccc(-c2csc(-c3ccccc3)n2)c1	6%	-5.9%	1.2	-0.2%	-27%	1%	1.0
O=C(Nc1cc(S(=O)(=O)N2CCOCC2)ccc1N1CCCC1)c1ccc(F)cc1	x	1.0%	x	-1.0%	-7%	u	-2.3
CC1CCN(C(=O)CCNS(=O)(=O)c2ccc(Cl)cc2)CC1	2%	x	2.7	-0.6%	-1%	3%[15.4 µM]	-1.1
CN(C)c1ncnc2c1ncn2[C@H]1CN(Cc2ccccc2)C[C@@H](CO)O1	x	-0.5%	x	2.5%	x	x	-3.8
OC(c1ccccc1)(c1ccccc1)c1nccn1-c1ccccc1	x	x	x	4.8%	-1%	29%	-2.6
O=C(COc1ccc(S(=O)(=O)NC2CCCCC2)cc1Cl)NCC1CCCO1 (centres undefined)	-10%	0.5%	-0.8	-1.0%	19%	-9%	-2.7
COc1ccc(OC)c(NC(=O)N2CCCC(C)C2)c1 (centres undefined)	13%	-0.5%	2.3	0.2%	-6%	11%	1.2
CCOC(=O)c1cc([N+](=O)[O-])c([N+](=O)[O-])cc1NC(C)=O	-11%	u	0.3	-3.6%	-37%	-15%[15.4 µM]	4.1
Nc1ncn(C(=S)Nc2ccccc2)n1	x	-4.2%	x	6.0%	-12%	u	-0.5
CCN(CC)S(=O)(=O)c1cccc(C(=O)OCC(=O)c2ccc3c(c2)OCCO3)c1	11%	-2.7%	3.7	1.2%	-6%	10%	-1.6
Cc1cc(/C=N/n2cnnc2)c(C)n1-c1ccc(Cl)cc1Cl	-15%	-7.2%	2.7	0.4%[38.3 µM]	6%	-1%	-2.5
Cc1ccc(-c2csc(NC(=O)c3ccccc3F)c2C(=O)O)cc1	14%	-1.7%	0.4	-0.4%	-27%	-15%	5.0
COCCN1C[C@@H](CO)O[C@@H](n2cnc3c(NC4CCC4)ncnc32)C1	x	-0.6%	x	0.6%	x	x	-2.6
O=C(COC(=O)c1ccc(S(=O)(=O)N2CCCC2)cc1)Nc1ccccc1	x	1.6%	x	2.7%	-7%	-5%	-8.8
CC1(C)OC(=O)C(=CNc2ccccc2)C(=O)O1	12%	-0.5%	1.2	1.2%	7%	-28%	-3.9
Cn1c(=O)c2c(nc(SCC(=O)NCc3ccc4c(c3)OCO4)n2Cc2ccc(Cl)cc2)n(C)c1=O	-21%	-0.4%	-3.8	4.8%	-16%	-4%	-0.1
CCc1cc2c(=O)nc3n(c2s1)Cc1ccccc1/C3=C(/O)c1cccc([N+](=O)[O-])c1	2%	-3.3%	-1.4	2.4%[38.3 µM]	11%	3.2µM*	-1.7
CC(=O)N1CCN(c2ccc(C(N)=O)cc2[N+](=O)[O-])CC1	16%	0.1%	-0.3	2.6%	2%	26%	-6.2
COc1ccc(N2C(=O)C3C4C=CC(C4)C3C2=O)c(OC)c1 (centres undefined)	-2%	-0.5%	0.5	5.5%[38.3 µM]	3%	u	-1.2
CCOc1cc(Br)c(COc2ccc(C)nc2[N+](=O)[O-])cc1OCC	-8%	x	-3.3	0.8%	-25%	-8%[15.4 µM]	-1.0
Cc1cc(C(=O)COC(=O)c2ccco2)c(C)n1Cc1ccco1	-5%	-4.3%	3.3	-0.4%	9%	4%	5.1
CC(=O)NC(CC(=O)N1CCCC1)c1ccccc1 (centres undefined)	x	-1.2%	x	-0.7%	9%	8%	6.4
CCCOc1ccc(CN(CCC#N)C(=S)NC(=O)c2ccccc2)cc1	-7%	-2.5%	0.3	4.2%	-5%	u	-6.9
O=C(Nc1ccon1)c1nc[nH]c1C(=O)N1CCc2ccccc2C1	x	-3.0%	x	1.1%	3%	-33%[inhibitor]	-1.7
COc1cc(NC(=O)CSc2ccccc2)c(C(=O)O)cc1OC	0%	2.0%	1.6	1.3%	u	-4%	-3.8
CC(=O)Nc1ccc(S(=O)(=O)NCC(=O)NNC(=O)c2csc(N3CCOCC3)n2)cc1	x	x	x	-0.1%	4%	5%[15.4 µM]	-0.9
Cc1cc(C)c(C#N)c(SCS(=O)c2ccc(C(C)(C)C)cc2)n1 (centres undefined)	-1%	-0.2%	-0.5	x	u	-37%[inhibitor]	0.2
S=c1[nH]nc(Cc2ccccc2)n1-c1ccccc1	-8%	1.0%	3.7	-0.2%	-11%	17%	-2.3
CCCCN(CC(=O)NCCOC)C(=O)Cn1nnc2ccccc21	17%	x	-2.6	-0.1%	4%	19%[15.4 µM]	-2.8
COc1ccc(N(CC(=O)N/N=C/c2cccs2)S(=O)(=O)c2ccc(OC)c(OC)c2)cc1	11%	-0.2%	-1.8	3.2%[38.3 µM]	u	-11%	-0.4
O=C(O)CC/C(=N\NC(=O)CNC(=O)/C=C/c1ccccc1)c1ccccc1	-5%	0.2%	3.1	0.9%	-5%	-14%	-7.7
CCCCCOc1ccc(C(=O)NCC(=O)NCC(=O)OCC)cc1	2%	-2.1%	2.3	13%	7%	-19%	-1.3
CC(C)Cn1c(=O)c2ccccc2c2ccccc2c1=O	-14%	-3.2%	0.3	x	0%	-14%	-2.6
Nc1nc2ccccc2n1C(=O)c1cccs1	6%	0.9%	-0.3	2.7%	-28%	-2%[15.4 µM]	-5.5
COc1ccc(CNC(=O)CN=C2NC(=O)C(c3ccccc3)(c3ccccc3)N2)cc1	-1%	-1.3%	1.9	u	4%	-54%[inhibitor]	-1.7
COc1cccc(CN2CCSCC2)c1OC	-18%	x	3.6	0.2%	-5%	-24%	5.1
COc1cccc(N2CCN(C(=O)NC3CCCCC3)CC2)c1	1%	-2.4%	2.8	-2.0%	-10%	-65%[inhibitor]	2.6
CC(=O)OC(C)C(=O)NS(=O)(=O)c1ccc(C)cc1 (centres undefined)	12%	x	1.8	1.0%	11%	22%	-1.7
CSc1ncc(Cl)c(C(=O)Nc2ccc(C)c(C)c2)n1	3%	2.9%	-9.5	1.8%	-3%	-3%	-2.9
O=C(NCc1ccccc1)C(=O)NCC1OCCN1S(=O)(=O)c1ccc(Br)cc1 (centres undefined)	7%	-2.0%	x	0.7%	-6%	24%	6.0
O=C(Oc1ccc(/C=N/n2cnnc2)cc1)c1cccc([N+](=O)[O-])c1	4%	x	0.8	-0.7%	14%	3%[15.4 µM]	3.9
CC(=O)NCCc1nc(-c2ccc(Cl)cc2)no1	x	1.0%	x	0.6%	-7%	x	0.1
CCC1(O)CC(C(=O)OC)=NN1C(=O)c1ccccc1 (centres undefined)	14%	0.6%	2.5	1.8%[38.3 µM]	5%	-13%	0.5
COc1ccc(NC(C)=O)cc1NC(=O)CSc1nnc(-c2ccccn2)n1C	3%	-0.5%	3.6	-3.8%[38.3 µM]	4%	u	1.1
O=C(O)Cn1c(=O)c(F)cn(C2CCCO2)c1=O (centres undefined)	19%	x	1.8	1.5%	-2%	4%[15.4 µM]	-2.8
C=CCNC(=O)COCc1cc(-c2ccc3c(c2)OCO3)on1	14%	-27%	0.0	0.3%	5%	6%	2.9
O=C(COC(=O)c1ccc(S(=O)(=O)N2CCCCCC2)cc1)NCc1ccc(Cl)cc1	x	1.5%	x	-0.3%	1%	-14%	4.6
Later entries.
SMILES	Sfp PPTase inh	ClpP mod	Menin-MLL FL inh	PINK1 modulator	gsp antag	gsp agonist	D2 agonist
Cc1ccc(C(=O)NC(=S)N2CCN(C)CC2)cc1	-2%	-18%	-2.1	3.6%	6%	47%	-4.7
CCc1ccccc1NC(=O)CNC(=O)CNC(=O)Cc1ccccc1	x	1.5%	x	1.0%	8%	6%	1.2
CCCn1c(C(C)Nc2nc(-c3ccc(Cl)c([N+](=O)[O-])c3)cs2)nc2ccccc21 (centres undefined)	-9%	-1.3%	-5.2	5.8%	-10%	-3%	2.2
Nc1c(-c2nn[nH]n2)cnn1-c1cc(Cl)cc(Cl)c1	14%	0.3%	3.3	0.2%	-4%	16%[15.4 µM]	-4.4
COc1ccc(C(CNC(=O)COc2ccc(Cl)c(C)c2)N2CCCCC2)cc1 (centres undefined)	1%	1.3%	-6.0	12%	9%	26%	-0.3
COc1ccc(S(=O)(=O)N(C)C)cc1NC(=O)c1ccc2c(c1)NC(=O)C(C)S2 (centres undefined)	x	-1.0%	x	3.2%	-23%	3%	-3.7
CCOc1ccc(N(Cc2nnc3n2CCCCC3)C(=O)Nc2cccc(C)c2)cc1	-13%	x	-0.3	1.6%	3%	-35%[inhibitor]	-2.7
NS(=O)(=O)c1ccc(Nc2nc(-c3cccc([N+](=O)[O-])c3)cs2)cc1	32µM*	x	-1.1	2.6%	-36%	-11%	-0.9
CCCCCCCCCn1ccc(=N)cc1	-24%	u	-5.5	u	-7%	7%[15.4 µM]	2.0
CCOc1ccccc1C(=O)NCc1ccc2c(c1)OCO2	24%	-0.1%	1.6	4.2%	1%	-6%	-2.7
COC(=O)c1ccc2ncccc2c1	9%	-0.3%	2.3	-1.8%	-5%	1%	-1.0
O=C(O)CC(C(=O)OCCOc1ccccc1)N1CCOCC1 (centres undefined)	4%	2.0%	-0.2	0.5%	7%	2%[15.4 µM]	-3.4
Cc1cc([N+](=O)[O-])ccc1NC(=O)CN1C2CCC1CC(NC(=O)NC13CC4CC(CC(C4)C1)C3)C2 (centres undefined)	13%	x	-1.0	0.9%	-15%	-4%	3.9
CCOC(=O)C1=C(COC(=O)Cc2ccccc2)NC(=O)NC1C (centres undefined)	10%	-0.2%	x	-0.1%	4%	-3%	-2.1
O=C(Nc1cnns1)Oc1ccccc1	x	1.8%	x	-0.7%	x	-10%	-1.5
O=C(Nc1ccc(F)cc1)C1(S(=O)(=O)c2ccc(Cl)cc2)CC1	18%	x	-7.0	1.0%	-13%	-1%	0.4

Screening data: PubChem BioAssay, National Center for Advancing Translational Sciences (NCATS)
